Screens from PubChem BioAssay.
TsaE inh – YjeE (TsaE) inhibition, E. coli. Potency, µM. AID 605. P0AF67. purified YjeE, fluorescence polarisation of a bound ADP probe. 71,000 tested, 0.05% active; active = well fitted falling curve; inconclusive = weaker or top-dose-only fall, or a rising curve; inactive = flat or poorly fitted curve;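 also: top concentration of the series not given in the record; excess ADP was the control for the full effect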
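Fluorescence polarization of a BODIPY Texas Red–ADP probe (2 uM) bound to purified YjeE (10 uM) was read after 15 min room-temperature incubation with compounds. Loss of polarization marks inhibitors; ADP serves as titrated control.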
PK Bst – alters activity of Bacillus stearothermophilus pyruvate kinase; 51,000 tested, 1.2% active; partly purified Bacillus stearothermophilus pyruvate kinase, luminescence ATP production; ribose 5-phosphate activator present at AC10; Potency, µM; AID 361; in the data active means potency below about 11 µM; inconclusive means mostly about 12 µM to 25 µM; inactive means weaker than that;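 the screen sought inhibitors and activators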;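 also: potency is read from the fitted curve at half-maximal effect; scaled between full activation by ribose 5 phosphate and full inhibition by luteolin; about four in five hits inhibit and the cells do not say which; series up to 57 µM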
Numbers without * were called inactive; i = inactive; ? = inconclusive; . = no result given.

SMILES,TsaE inh,PK Bst
O=C(NCc1ccco1)C(NS(=O)(=O)c1cccc2nsnc12)c1ccccc1 (stereo not drawn),i,>57
COC(=O)C1=C(C)Nc2nc(-c3ccccc3)nn2C1c1ccc(C)o1 (stereo not drawn),i,.
Cc1cccc(NC(=O)CSc2nnc(CSc3nc(C)cc(C)n3)o2)c1,i,>57
COCCNC(=O)Cc1ccc(Br)cc1,i,.
CCCN1C2CCCC1CC(NC(=O)Nc1cccc(C(C)=O)c1)C2 (stereo not drawn),i,>57
O=C(CSc1nnnn1C1CCCC1)N1CCCc2ccccc21,i,>57
CSCC[C@H](NC(=O)OC(C)(C)C)c1nnc(SCC(N)=O)o1,i,>57
CCCCOc1ccc(-c2nnn(CC(=O)NCc3ccco3)n2)cc1,i,>57
CC1(C(=O)Nc2nccs2)Cc2ccccc2C(=O)O1 (stereo not drawn),i,i
CCOC(=O)C1=C(C)OC(N)=C(C#N)C1c1c(C)nn(-c2ccc(C)cc2)c1Cl (stereo not drawn),i,>57
C=CCn1c(=N)c(C(=O)NCCCOC)cc2c(=O)n3ccccc3nc21,i,>57
O=c1ccn([C@H]2O[C@H](CO)[C@@H](O)[C@@H]2O)c(=O)[nH]1,i,.
Cn1cc(C(=O)NC2CCCCCCC2)c(=O)c2cc(S(=O)(=O)N3CCCC3)ccc21,i,>57
CCOC(=O)/C=C1\SCC(=O)N1CCOc1cccc(Br)c1,i,>57
COc1ccc(N2C(=O)C(Cl)=C(N3CCN(Cc4ccccc4)CC3)C2=O)cc1,i,>57
COC(=O)c1ccc(NC(=O)c2ccc(N(C)S(C)(=O)=O)cc2)cc1,i,>57
C=CCN1C(=O)C(O)(CC(=O)c2ccc(N)cc2)c2ccccc21 (stereo not drawn),i,.
CC(=O)N1CCC(N(CCN2CCOCC2)C(=O)Nc2ccc(Cl)c(Cl)c2)CC1,i,.
COc1ccccc1NS(=O)(=O)c1ccc(C)c(C(=O)NCC2CCCO2)c1 (stereo not drawn),i,>57
CC(NC(=O)CCNS(=O)(=O)c1ccc2c(c1)c(=O)n(C)c(=O)n2C)c1ccccc1 (stereo not drawn),i,>57
Cc1cc(OCC(=O)N2CCCC2)cc(C)c1Cl,i,>57
CCc1ccc(OCc2nnc(SCCN3CCOCC3)n2CC)cc1,i,>57
Cc1ccc(/C=N/c2sc3c(c2C#N)CCCCC3)o1,i,>57
CCN(CC)CCN1C(=O)C2C3c4ccccc4C(c4ccccc43)C2C1=O (stereo not drawn),i,.
CCOc1ccc(-c2nnc(-c3ccco3)o2)cc1,i,.
CNC(=O)Cn1c(=O)n(C)c2ccccc21,i,>57
OCCN1CCN(CC(O)COc2ccc3ccccc3c2)CC1 (stereo not drawn),i,>57
CC(=O)N1CCN(S(=O)(=O)c2ccc(S(=O)(=O)NC3CC3)cc2)CC1,i,>57
CC(C)(C)C(=O)/C=C(\N)c1ccncc1,i,.
COc1ccc(OCCOC(=O)c2cccc(-n3cnnn3)c2)cc1,i,>57
CN(Cc1cc2ccccc2[nH]c1=O)C(=O)C1CCCCC1,i,>57
Cn1c(=O)c(=O)n(C)c2cc(S(=O)(=O)N3CCCCCC3)ccc21,i,>57
Cc1ccc(C(c2nnnn2CS(=O)(=O)c2ccc(C)cc2)N2CCC(C(N)=O)CC2)cc1 (stereo not drawn),i,>11
O=C(O)C1CCCCC1C(=O)Nc1ccc2c(c1)CCC2 (stereo not drawn),i,>57
CCCCCCCCCCCCCCCC[N+](C)(C)CCN(Cc1ccc(OC)cc1)c1ncccn1,i,.
O=C(Nc1ccccc1F)C1C2C=CC3(O2)C1C(=O)N(c1cccnc1)C3C(=O)NC1CCCCC1 (stereo not drawn),i,>57
Cn1c(Sc2nc3ccccc3n2C)nc2ccccc21,i,>57
COc1cc(NC(=O)C2CCCN(S(=O)(=O)c3cnc[nH]3)C2)cc(OC)c1 (stereo not drawn),i,.
O=C(O)C1(C(=O)O)CCN(S(=O)(=O)c2ccccc2)CC1,i,.
O=C(CC1C(=O)NCCN1C(=O)Nc1ccccc1)Nc1ccc2c(c1)OCCO2 (stereo not drawn),i,>57
O=C(CSc1nnc(-c2cccnc2)o1)c1cc2ccccc2oc1=O,i,>57
O=C(O)CCOc1ccc2c(c1)OCCO2,i,>57
COc1cccc(C2/C(=C(/O)c3ccccc3)C(=O)C(=O)N2CCCC(=O)O)c1 (stereo not drawn),i,.
CS(=O)(=O)Nc1ccc(C(=O)NCc2cccnc2)cc1,i,>57
COc1ccc2c(CC#N)c[nH]c2c1,i,.
Cc1occc1-c1nnc(SCc2cc(=O)n3cc(Br)ccc3n2)n1C,i,>57
Cc1[nH]nc(-c2ccc(O)c(C)c2O)c1-c1cnn(-c2ccccc2)c1,i,>57
CC(C)NC(=O)Cn1c(SCC(=O)N2c3ccccc3CC2C)nc2ccccc21 (stereo not drawn),i,>57
O=C1CN2C(=Nc3ccc(Br)cc3C2c2ccccc2)CCN1 (stereo not drawn),i,.
COc1ccc(CN(CC(=O)NCc2ccco2)C(=O)CCC(=O)Nc2ccccn2)cc1,i,>57
Fc1ccccc1COc1ccc(/C=N/n2cnnc2)cc1,i,.
CCN1C(=O)NC(c2cc(Br)ccc2OC)C(C(=O)OC)=C1C (stereo not drawn),i,>57
COC(=O)c1ccc(C(NC(=O)c2ccco2)[C@]2(C)C[C@H]2C2CCCCC2)cc1 (stereo partly drawn),i,.
Cc1nccn1-c1c2c(c(C#N)c3nc4ccccc4n13)CCCC2,i,>57
CCOc1cc(S(=O)(=O)N2CCC(Cc3ccccc3)CC2)c(OCC)cc1-n1cnnn1,i,>57
CC(C)CCNC(=O)C1CCN(S(=O)(=O)c2ccc3c(c2)CCC(=O)N3)CC1,i,.
OCCn1nc2c3ccccc3nc-2n(-c2ccccc2)c1=S,i,>57
NC1=NC(c2ccccc2Cl)n2c(nc3ccccc32)N1 (stereo not drawn),i,>57
CCOC(=O)Cc1nnc(NC(=O)CSc2nnc3c4ccccc4n(C(C)C)c3n2)s1,i,>57
Cc1cc(-c2nnc(-c3ccccc3)c(-c3ccccc3)n2)c(C)o1,i,>57

Compound profiles (already shown):
O=C1CN2C(=Nc3ccc(Br)cc3C2c2ccccc2)CCN1 (stereo not drawn) as listed: TsaE inh = i; PK Bst = .
CCOC(=O)/C=C1\SCC(=O)N1CCOc1cccc(Br)c1 as listed: TsaE inh = i; PK Bst = >57
Cc1ccc(/C=N/c2sc3c(c2C#N)CCCCC3)o1 as listed: TsaE inh = i; PK Bst = >57

Next section:
SMILES,TsaE inh,PK Bst
COCCOC(=O)C1=C(C)NC(=O)NC1c1c(F)cccc1Cl (stereo not drawn),i,.
CCN(CC)CCNC(=O)c1cc2c(-c3ccc(Cl)cc3)nn(C)c2s1,i,.
O=C(CN1C(=O)c2cccc3cccc1c23)Nc1ccccc1C(=O)NCc1ccco1,i,.
Cc1nnc2sc(-c3cccc4ccccc34)nn12,i,.
CCC(OC(=O)c1cccs1)C(=O)NCc1ccco1 (stereo not drawn),i,>57
O=C(Nn1cnnc1)C(c1ccccc1)c1ccccc1,.,>26
C[C@H](CS)C(=O)N1CCC[C@H]1C(=O)O,i,>26
Cc1ccc(-c2nc(Nc3ccccc3)n[nH]2)cc1,i,?
Cc1cc(Nc2ccc(C)c(Br)c2)n2nc(C)nc2n1,i,.
COc1ccccc1NC(=O)COC(=O)c1ccc(S(=O)(=O)NCc2ccco2)cc1,i,>57
CCOc1ccc(OCC)c(NC(=O)CN2CCN(c3ccc(C)cc3C)CC2)c1,i,>57
CC1(C)CC(=O)C=C(NCCN2CCN(C(=O)Nc3ccc(Cl)c(Cl)c3)CC2)C1,i,.
O=C(NC1CC2CCC(C1)N2C(=O)NCc1ccccc1)C1CC1 (stereo not drawn),i,>57
CNC(=O)c1cc2cc(OC)ccc2n1CCN(C)C,i,.
NC(=O)NC(Cc1ccccc1)C(=O)O (stereo not drawn),i,>57
C=CCNC(=O)CN(c1cccc(Br)c1)S(C)(=O)=O,i,.
Cc1ccc(C)c(N2CCN(C(c3ccncc3)c3nnnn3Cc3ccccc3)CC2)c1 (stereo not drawn),i,>57
Cc1cc(C)n2cc(CSc3nnnn3C)nc2n1,i,>57
COc1cc(OC)cc(C(=O)Nc2cccc(C(C)=O)c2)c1,i,.
COc1ccc(NC(=O)CSc2nc3c(c(=O)n2-c2ccccc2)SCC3)c(OC)c1,i,>57
Cc1cccc(C2CC(c3ccc(Cl)cc3)Nc3nc(N)nn32)c1 (stereo not drawn),i,.
CCOCCCNC(=O)c1ccc2c(c1)ncn2C1CCCC1,i,>57
COc1ccc(S(=O)(=O)NCc2cn3c(C)csc3n2)cc1F,i,.
CCNc1oc(-c2cccc3ccccc23)nc1C#N,i,>57
O=C(NCc1cccs1)c1ccccc1C(=O)NCc1cccs1,i,>57
COc1ccccc1-c1nnc(Nc2nc3c(OC)cccc3s2)o1,i,>57
CCCCNC(=O)C(C#N)c1nc2ccccc2nc1N1CCCC1 (stereo not drawn),i,>57
Cc1cccc(C)c1-n1nnnc1SCSc1nnnn1-c1c(C)cccc1C,i,3.5*
O=C(NCc1cccs1)C1CCN(S(=O)(=O)c2cccc3cccnc23)CC1,i,.
O=C(Cn1cnc2c(nnn2Cc2ccc(Cl)cc2)c1=O)NC1CCCC1,i,>57
Cn1c(-c2ccc(Br)o2)nc2ccccc21,i,?
O=C(O)CN(Cc1ccco1)S(=O)(=O)c1ccccc1,i,.
Cc1nc(Nc2ncc3c(n2)CCCC3=O)nc2ccccc12,.,>26
O=c1cnnc(SCCc2ccccc2)[nH]1,i,>57
O=C(Nc1cccc(F)c1)C1C2C=CC3(CN(CCCN4CCOCC4)C(=O)C13)O2 (stereo not drawn),i,.
Cc1csc(=NC(=O)c2ccccc2)n1Cc1ccco1,i,>57
CCOC(=O)N1CCN(c2c(N3CCOCC3)c(=O)c2=O)CC1,i,.
Cc1ccc(S(=O)(=O)NC2=NCN(Cc3ccccc3)CN2)cc1,i,>57
COC(=O)c1sccc1NC(=O)c1cc2c(s1)CCCC2,i,.
CCN(CC)S(=O)(=O)c1cc(Br)c(C)cc1OC,i,>57
CCOc1ccc2nc(SCc3ccc(C(=O)OC)o3)[nH]c2c1,i,>57
Fc1cnc(N2CCOCC2)nc1NCc1ccccc1,.,>26
CCn1c(SCC(=O)Nc2cc(C)ccc2C)nnc1-c1cnccn1,i,>57
O=c1c2cc(-c3ccccc3)sc2ncn1/N=C/c1ccco1,i,.
COc1ccc(CNC(=O)C2CCN(S(=O)(=O)N3CCOCC3)CC2)cc1,i,>57
COc1ccc(Cn2c(=O)[nH]c3cc(C(=O)NCCCN4CCCC4=O)ccc3c2=O)cc1,i,>57
c1ccc(-c2nnc(-c3ccco3)o2)cc1,i,i
C=CCn1c(=O)c2ccccc2n2c(SCc3csc(-c4ccccc4)n3)nnc12,i,>57
COc1ccc(CCNC(=O)C2CCCCC2C(=O)O)cc1OC (stereo not drawn),i,>57
CCn1c2ccccc2c2cc(C3C(C#N)=C(N)Oc4n[nH]c(COC)c43)ccc21 (stereo not drawn),i,>57
Cc1ccc(-n2ncc3c(=O)n(CC#N)cnc32)cc1,i,>57
O=C(c1ccncc1)N1CCC2(CCCN(c3ncccn3)C2)CC1,i,.
CN(C)CCNc1ccccn1,i,.
Cc1ccc(C)c2[nH]c(=O)c(CN(CCN3CCCC3)C(=O)Nc3cccc(Cl)c3)cc12,i,>11
CC(=O)N[C@H](CS)C(=O)O,i,.
Cc1cc2oc(=O)cc(CN3CCCc4ccccc43)c2cc1C,i,>57
COc1cc2c(cc1OC)CN(C(=O)c1cc3ccccc3oc1=O)CC2,i,.
O=C(C1CCC1)N1CCc2cc(S(=O)(=O)N3CCCCC3)ccc21,i,>57
COc1ccc2[nH]c(=O)c(CN(Cc3ccccc3)Cc3nnnn3CC3CCCO3)cc2c1 (stereo not drawn),i,.
Cc1ccc(-n2nnnc2SCC(=O)Nc2c(C)n(C)n(-c3ccccc3)c2=O)cc1,i,>57

The list continues:
SMILES,TsaE inh,PK Bst
C=CCn1c(Cc2csc(N)n2)nnc1SCC(=O)Nc1ccc(C(=O)OCC)cc1,i,>57
O=c1c(-c2ccccc2)nc2cnc(Oc3cccc(Cl)c3)nc2n1C[C@H]1CCCO1,i,.
O=C(NCCN1CCN(c2ccccc2)CC1)C1(S(=O)(=O)c2ccc(Cl)cc2)CC1,i,.
CCc1ccc2c(c1)C(C)=CC(C)(C)N2,.,>26
O=C(Nc1nnc(-c2ccco2)s1)c1ccccc1,i,.
COc1ccc(C2C3=C(CCCC3=O)Nc3nc(SCc4ccc(C(=O)O)cc4)nn32)cc1OC (stereo not drawn),i,.

Some of the compounds tested; count on the stated rates, not on these rows.
